PKD1 inh – inhibitors of human PKD1 kinase, biochemical, fluorescence polarization; Serine/threonine-protein kinase D1 (Homo sapiens), Q15139; PKD1 kinase fluorescence polarization assay; inhibition, %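 (about 10 µM by stock and volumes)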; actives 0.056% (n = 200,000); AID 797, 2007;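 active = inhibition of 50% or more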;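 note: controls were vehicle for no effect and a reference inhibitor for full effect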
Insulin prom inh – inhibitors of insulin promoter-driven GFP, primary screen, imaging, TRM-6 cells (human fetal islet line), eGFP reporter, cell count | reporter expression induced with tamoxifen | inhibition, % at 2 µM | actives 0.9% (n = 130,000) | AID 1273, 2008;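 active = inhibition above the mean plus 3 SD, with well images judged a real hit on visual review, cut at about 60% in these data, passing the limit was not always enough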
RGS16-Gao – modulators of RGS16 binding to Galphao, primary screen, biochemical, human proteins, multiplexed bead flow cytometry | Regulator of G-protein signaling 16 (Homo sapiens) + Guanine nucleotide-binding protein … | bead-based flow cytometry RGS16-Galphao binding, fluorescence; actives lie on both sides | binding response (% of control), % at 10 µM | actives 0.38% (n = 220,000);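 active = below 25% or above 175%, edge rows of some plates excepted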;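 note: Galphao activated by GDP with aluminum fluoride before binding; 100% = wells without compound and 0% = beads without RGS; some results beyond the cut were filed as inactive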
Target sequence (O15492 whole entry, looked up): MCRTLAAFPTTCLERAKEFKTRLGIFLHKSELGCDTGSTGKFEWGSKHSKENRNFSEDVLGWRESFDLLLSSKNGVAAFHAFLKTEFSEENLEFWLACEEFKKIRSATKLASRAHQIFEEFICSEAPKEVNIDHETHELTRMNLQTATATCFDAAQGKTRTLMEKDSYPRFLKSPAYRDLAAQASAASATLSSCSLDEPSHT
Target sequence (P09471 whole entry, looked up): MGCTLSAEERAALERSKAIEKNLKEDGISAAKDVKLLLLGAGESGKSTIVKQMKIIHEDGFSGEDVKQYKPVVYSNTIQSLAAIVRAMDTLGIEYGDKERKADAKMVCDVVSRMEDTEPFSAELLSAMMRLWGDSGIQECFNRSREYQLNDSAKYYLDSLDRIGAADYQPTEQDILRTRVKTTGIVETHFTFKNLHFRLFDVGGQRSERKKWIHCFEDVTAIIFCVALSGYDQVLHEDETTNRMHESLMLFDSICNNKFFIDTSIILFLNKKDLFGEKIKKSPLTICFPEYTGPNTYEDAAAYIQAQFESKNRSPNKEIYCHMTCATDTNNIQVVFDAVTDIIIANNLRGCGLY
HSV replic up – enhancers of HSV replication in host cells, fold increase, host cell viability | HSV replication augmentation in cells | actives 0.005% (n = 220,000) | AID 1956, 2009 | maximum fold increase;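 active = peak rise of 1.5-fold or more in the series; tested in PC3 cells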;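 note: first round at 10 µM; read as green reporter fluorescence; hits show the peak of a series up to 25 µM; 1 = signal of infected wells without compound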
GALR2 ag – GALR2 receptor agonists, primary screen, cell-based; Galanin receptor type 2 (Homo sapiens), O43603; actives 0.48% (n = 140,000); GALR2-expressing cells, agonist activation read-out; AID 803, 2007; activation, %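 (tested at 5 µM)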;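 active = above mean plus 3 SD of all compounds, about 5% in these data, not always enough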;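 note: 0% = vehicle buffer wells and 100% = reference agonist at full effect; tested in CHO reporter cells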
Target sequence (O43603 whole entry, looked up): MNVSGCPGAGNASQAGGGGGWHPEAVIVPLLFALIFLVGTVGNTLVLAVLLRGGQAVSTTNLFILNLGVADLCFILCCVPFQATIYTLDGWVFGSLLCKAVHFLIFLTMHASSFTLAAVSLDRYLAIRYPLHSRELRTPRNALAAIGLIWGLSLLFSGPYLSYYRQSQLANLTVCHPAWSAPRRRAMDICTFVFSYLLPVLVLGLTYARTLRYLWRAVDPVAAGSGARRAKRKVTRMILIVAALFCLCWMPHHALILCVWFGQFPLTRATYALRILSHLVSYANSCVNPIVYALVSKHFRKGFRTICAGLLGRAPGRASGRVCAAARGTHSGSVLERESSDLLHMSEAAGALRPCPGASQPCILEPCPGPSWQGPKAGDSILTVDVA
Insulin prom inh cell count – recorded beside Insulin prom inh, whose call it bears; normalized cell count, %; measured here: cell count, toxicity; reference of the scale not given here;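 cells exposed to compound for 48 h; stained nuclei by imaging scaled within each plate; lower means fewer cells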
HSV replic up primary fold – second read-out of HSV replic up, no call of its own (marks repeat the call); fold increase; compound at 10 µM; measured here: primary screen fold increase 10 uM; tested in PC3 cells;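 GFP signal in the first replicate; 1 = infected wells without compound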
Numbers without * were called inactive; i = inactive; x = not tested or not shown.

SMILES | PKD1 inh | Insulin prom inh | Insulin prom inh cell count | RGS16-Gao | HSV replic up | HSV replic up primary fold | GALR2 ag
CCn1c2ccccc2c2cc(NC(=O)COc3ccc(OC)cc3)ccc21 | -8.8 | 12.0 | 104.2 | 90.2 | i | 0.97 | -1.2
FC(F)Oc1ccc(-n2cc(-c3ccc(Cl)cc3)[n+]3c2CCCCC3)cc1 | x | x | x | 84.1 | i | 0.89 | x
COc1ccccc1OCc1ccc(C(=O)NCC2CCCO2)o1 (centres undefined) | 4.7 | x | x | 107.3 | i | 1.09 | -1.6
Cc1nc2c(Br)cc(Br)cc2cc1O | -7.2 | 42.9 | 83.1 | 100.5 | i | 0.667 | -1.9
Cc1n[nH]c(=O)nc1N1CCN(c2ccccc2)CC1 | 0.5 | -6.2 | 147.5 | 91.1 | i | 0.96 | -2.4
Nn1c(C2COc3ccccc3O2)n[nH]c1=S (centres undefined) | x | x | x | 78.8 | i | 1.02 | x
N#Cc1ccc(NC(=O)Nc2ccc(Oc3ccc(NC(=O)Nc4ccc(C#N)cc4)cc3)cc2)cc1 | x | x | x | 105.8 | i | 0.79 | x
Oc1ccc2ccccc2c1C=Nc1cc(C(F)(F)F)ccc1N1CCCC1 | 7.1 | 7.1 | 93.8 | 108.5 | i | 1.04 | -1.0
Cc1ccc(-c2[nH]ncc2/C=N/n2c(C)nc3ccccc3c2=O)cc1 | x | x | x | 101.9 | i | 0.92 | x
O=C(Nc1ccccc1-c1ccccc1NC(=O)c1ccco1)c1ccco1 | 6.2 | -58.1 | 118.6 | 103.7 | i | 0.94 | -0.6
CCOC(=O)c1sc(NC(=O)c2cccc(S(=O)(=O)N3CCN(C)CC3)c2)cc1C | -8.4 | x | x | 124.7 | i | 0.95 | -2.1
O=C(O)c1cc([N+](=O)[O-])c(NCCC2=CCCCC2)c([N+](=O)[O-])c1 | -4.3 | 50.0 | 99.7 | 105.0 | i | 0.96 | x
Cc1cnc(C(=O)OCC(=O)Nc2cc(S(=O)(=O)N3CCCCC3)ccc2Cl)cn1 | 2.8 | -7.1 | 59.5 | 104.4 | i | 1.03 | -0.7
CCCOc1ccc(/C=N/Nc2cccc([N+](=O)[O-])c2)c(O)c1 | -9.2 | x | x | 109.6 | i | 0.56 | 0.0
CCOC(=O)c1cnn(-c2ccc([N+](=O)[O-])cc2)c1N | x | x | x | 105.8 | i | 0.93 | x
O=c1oc2ccccc2c(Nc2cccc3ccccc23)c1[N+](=O)[O-] | -19.6 | 26.7 | 147.3 | 105.7 | i | 0.98 | -2.5
Cc1cc(NC(=O)COC(=O)CCNS(=O)(=O)c2c(Cl)cccc2Cl)no1 | -1.4 | 61.5 | 80.6 | 98.2 | i | 0.99 | x
c1ccc(COc2cccc(CN3CCN(c4ccccn4)CC3)c2)cc1 | -2.4 | -38.1 | 103.2 | 124.6 | i | 0.97 | -1.4
COCCNC(=O)NC12CC3(C)CC(C)(CC(C)(C3)C1)C2 | 11.1 | -17.6 | 108.6 | 101.0 | i | 1.24 | x
Cc1ccc(S(=O)(=O)N2Cc3ccccc3CC2C(=O)Nc2ccc3c(c2)OCO3)cc1 (centres undefined) | -6.3 | -18.9 | 67.6 | 89.0 | i | 0.943 | -1.8

Some of these compounds in order of length of the SMILES, low to high.
SMILES | PKD1 inh | Insulin prom inh | Insulin prom inh cell count | RGS16-Gao | HSV replic up | HSV replic up primary fold | GALR2 ag
Nn1c(C2COc3ccccc3O2)n[nH]c1=S (centres undefined) | x | x | x | 78.8 | i | 1.02 | x
Cc1n[nH]c(=O)nc1N1CCN(c2ccccc2)CC1 | 0.5 | -6.2 | 147.5 | 91.1 | i | 0.96 | -2.4
CCOC(=O)c1cnn(-c2ccc([N+](=O)[O-])cc2)c1N | x | x | x | 105.8 | i | 0.93 | x
CCn1c2ccccc2c2cc(NC(=O)COc3ccc(OC)cc3)ccc21 | -8.8 | 12.0 | 104.2 | 90.2 | i | 0.97 | -1.2
O=c1oc2ccccc2c(Nc2cccc3ccccc23)c1[N+](=O)[O-] | -19.6 | 26.7 | 147.3 | 105.7 | i | 0.98 | -2.5
Cc1ccc(-c2[nH]ncc2/C=N/n2c(C)nc3ccccc3c2=O)cc1 | x | x | x | 101.9 | i | 0.92 | x
Cc1cc(NC(=O)COC(=O)CCNS(=O)(=O)c2c(Cl)cccc2Cl)no1 | -1.4 | 61.5 | 80.6 | 98.2 | i | 0.99 | x
Cc1cnc(C(=O)OCC(=O)Nc2cc(S(=O)(=O)N3CCCCC3)ccc2Cl)cn1 | 2.8 | -7.1 | 59.5 | 104.4 | i | 1.03 | -0.7
Cc1ccc(S(=O)(=O)N2Cc3ccccc3CC2C(=O)Nc2ccc3c(c2)OCO3)cc1 (centres undefined) | -6.3 | -18.9 | 67.6 | 89.0 | i | 0.943 | -1.8
N#Cc1ccc(NC(=O)Nc2ccc(Oc3ccc(NC(=O)Nc4ccc(C#N)cc4)cc3)cc2)cc1 | x | x | x | 105.8 | i | 0.79 | x

Next records follow.
SMILES | PKD1 inh | Insulin prom inh | Insulin prom inh cell count | RGS16-Gao | HSV replic up | HSV replic up primary fold | GALR2 ag
CC(=O)Nc1ccc(OS(=O)(=O)c2c(C)cc(C)cc2C)cc1 | -2.5 | 14.3 | 103.2 | 101.1 | i | 0.87 | x
Cc1occc1C(=O)Nc1ccc(OCc2ccccc2)cc1 | -6.4 | 3.7 | 128.0 | 104.4 | i | 0.97 | x
CCOC(=O)c1c(C)nc(C)c(C(=O)OCC)c1-c1cccc(N)c1 | -0.7 | 0.0 | 95.7 | 100.7 | i | 1.01 | x
Cc1ccc[n+](-c2nc3ccccc3nc2[N-]S(=O)(=O)c2ccccc2)c1 | x | x | x | 93.8 | i | 1.05 | x
Cc1cc(NC(=O)c2ccc3c(c2)OCCO3)ccc1NC(=O)c1cc2ccccc2o1 | -6.6 | 40.0 | 72.8 | 89.5 | i | 0.79 | x
CCCCCCCCCn1c2c(c(=N)c3c1CCC3)CCC2 | -0.8 | -176.9 | 32.7 | 101.5 | i | 0.58 | -0.6
Oc1ccccc1C1=NCCNC(C(F)(F)C(F)F)=C1 | -3.9 | 2.8 | 50.8 | 93.9 | i | 0.99 | 0.5
N/C(CC(=O)Nc1cc(C(F)(F)F)ccc1Cl)=N\O | x | x | x | 112.0 | i | 1.02 | x
Cc1ccc(-n2c(=S)[nH]c3[nH]ncc3c2=O)cc1 | -0.1 | x | x | 98.1 | i | 0.92 | x
CC(=O)NN1C(=O)/C(=C\c2ccc(Cl)cc2)SC1=S | 7.5 | x | x | 98.4 | i | 1.17 | x
Cc1c(C(=O)NCCc2ccc(S(N)(=O)=O)cc2)cccc1[N+](=O)[O-] | 2.7 | 6.7 | 64.5 | 75.8 | i | 0.98 | x
CC(C)(C)c1ccc(Oc2ccc(NC(=O)C3CC=CCC3C(=O)O)cc2)cc1 (centres undefined) | 0.0 | x | x | 103.4 | i | 0.88 | x
COc1ccccc1-c1nnc(SCc2ccccn2)n1C | -0.7 | -50.0 | 172.6 | 57.1 | i | 0.92 | -1.6
CCOC(=O)c1c(C)[nH]c2cc(Br)c(O)cc12 | -3.4 | 34.8 | 121.8 | 100.5 | i | 0.8 | -1.1
Fc1ccc(C2CCCN2Cc2nc(-c3cnccn3)no2)cc1 (centres undefined) | -6.9 | x | x | 107.7 | i | 0.93 | x
NC(=O)NC(=O)COC(=O)c1cccc(NS(=O)(=O)/C=C/c2ccccc2)c1 | 1.1 | x | x | 101.1 | i | 1.05 | x
CNC(=O)CSc1nnc(COc2ccc(Cl)cc2)n1CCOC | 8.4 | x | x | 100.4 | i | 0.93 | -1.4
CCC(C)NC(=O)c1ccc(NC(=O)C2CCCO2)cc1 (centres undefined) | -16.9 | x | x | 97.0 | i | 0.9 | -3.6
Cc1nc(C)c(Oc2ccc(Cl)cc2Cl)c(=O)[nH]1 | x | x | x | 103.4 | i | 1.02 | x
CCn1c(O)c(/C=N/N=C/c2ccc(OC)cc2)c2cc(C3=NNC(=O)CC3)ccc21 | x | x | x | 96.1 | i | 1.1 | x
CC1(C)CC(=O)C2=C(C1)N(CC1CCCO1)C(=O)NC2(C(F)(F)F)C(F)(F)F (centres undefined) | -10.2 | 48.1 | 103.0 | 98.1 | i | 0.88 | -3.3
O=C(NCCc1ccccc1F)C1CCCN1S(=O)(=O)c1ccccc1 (centres undefined) | -9.1 | x | x | 92.8 | i | 0.9 | -1.1
S=C(NCCCN1CCOCC1)N1CCOCC1 | x | x | x | 98.2 | i | 0.9 | x
CCCNC(=O)c1cccc(COCC(F)(F)C(F)F)c1 | -9.4 | -225.0 | 129.4 | 97.5 | i | 0.99 | -1.1
CC1Oc2ccccc2N(CC(=O)N2CCCc3ccccc32)C1=O (centres undefined) | -4.1 | x | x | 109.4 | i | 0.76 | -1.0
COc1ccc(NC2CC(=O)N(C(C)C)C2=O)cc1 (centres undefined) | 5.5 | 47.4 | 124.9 | 98.2 | i | 1.04 | -2.1
COc1ccc2c(CC(=O)Nc3ccc(N4CCOCC4)cc3)coc2c1 | 2.9 | x | x | 98.8 | i | 0.89 | x
CS(=O)(=O)NCCCNc1ccc(Cl)cc1[N+](=O)[O-] | -0.1 | 20.8 | 101.5 | 105.3 | i | 0.8 | 58.0*
CCc1nnc(NC(=O)CSc2nnc(-c3ccc(OC)cc3)n2C)s1 | -11.5 | 18.4 | 99.3 | 92.1 | i | 0.97 | -1.4
CN(C)n1cccc1/C=C(\C#N)S(=O)(=O)c1ccc(Cl)cc1 | x | x | x | 107.6 | i | 0.97 | x
O=C(Oc1ccccc1N1C(=O)C2CC=CCC2C1=O)c1ccc(Br)cc1 (centres undefined) | 1.2 | x | x | 97.5 | i | 1.1 | 1.0
O=C(NCc1nc2ccccc2[nH]1)C1=C[C@H](C2CC2)C[C@H](OCCCCO)O1 | 4.6 | x | x | 97.7 | i | 1.09 | x
COc1ccc2[nH]c3c(=O)n(Cc4ccc(C(=O)N5CCCC5)cc4)c(=S)[nH]c3c2c1 | -5.2 | -12.5 | 85.2 | 89.7 | i | 0.86 | x
O=c1[nH]c(N/N=C/c2ccccc2Br)nnc1-c1ccccc1 | 2.3 | -12.5 | 138.4 | 100.2 | i | 0.92 | -1.6
CS(=O)Cc1cc(Oc2ccccc2)nc(-c2ccncc2)n1 (centres undefined) | 1.0 | -7.7 | 121.3 | 99.5 | x | x | x
Cc1nc(C(=O)NC2CCOCC2)sc1C1(C)CC(c2cccc([N+](=O)[O-])c2)=NO1 (centres undefined) | x | x | x | 109.0 | i | 0.82 | x
CCOC(=O)c1ccc(NC(=O)c2nc[nH]c2C(=O)N2CCN(c3ccccc3)CC2)cc1 | x | x | x | 96.6 | i | 0.875 | x
CCCCCCCCNC(=O)c1cccnc1SCC(=O)Nc1ccc(OC)cc1OC | 3.1 | 0.0 | 60.5 | 114.3 | i | 0.89 | -1.9
Cc1ccc(C(=O)CN(C(=O)c2ccc(Cl)c(Cl)c2)N2C(=O)C3C4C=CC(C4)C3C2=O)cc1 (centres undefined) | -1.7 | x | x | 99.7 | i | 0.94 | -2.5
CCCCCc1n[nH]c2c1CCCC2 | x | x | x | 114.1 | i | 0.88 | x
CCOC(=O)COc1ccc(Br)cc1/C=C/c1[nH]c(=O)[nH]c(=O)c1[N+](=O)[O-] | -0.1 | x | x | 97.5 | i | 0.91 | x
CC(C)OCCCN1C=C2C(=O)C(C)(OC(=O)CCc3ccccc3)C(=O)C=C2C=C1c1ccc(C#N)cc1 (centres undefined) | x | x | x | 98.8 | i | 1.05 | x
CCOc1ccc2[nH]c(=O)c(CN(Cc3ccco3)C(=O)c3cccc(F)c3)cc2c1 | 2.8 | x | x | 96.9 | i | 0.92 | -1.7
Cc1nnsc1NC(=O)OCc1ccccc1Cl | 3.7 | -29.0 | 131.9 | 99.0 | i | 0.93 | 0.4
Cc1ccc(N(Cc2cc3ccc(C)cc3[nH]c2=O)C(=O)c2cccs2)cc1 | x | x | x | 102.3 | i | 0.85 | x
CCOC(=O)c1cc(C(C)=O)c(=O)[nH]c1C | 1.6 | x | x | 94.0 | i | 0.69 | x
CC(=O)Oc1ccc(-c2cccc(C(=O)OCC(=O)N(C)c3ccccc3)c2)cc1 | -9.4 | x | x | 107.3 | i | 1 | -1.2
CC(C)C(=O)N1CCN(c2ccc(NC(=O)c3ccc(Br)o3)cc2)CC1 | -2.5 | -207.0 | 85.0 | 105.0 | i | 0.91 | -1.7
CCOC(=O)c1c(N)nn(C(=O)C(C)C)c1-c1ccccc1 | -2.1 | 57.1 | 115.8 | 95.8 | i | 0.95 | -3.9

Compound activity (PubChem BioAssay)
